Screening data as filed in PubChem.
Rango dissoc inh = inhibitors of RanGTP-induced Rango-importin beta complex dissociation | O95149+P62826 | Biochemical FRET Rango-importin beta, RanGTP-induced dissociation | Potency, µM (top dose mostly 46.1 µM), without a hit: at the highest dose activity change, negative = inhibition | 340,000 tested, 0.071% active | AID 540253; active means falling FRET ratio curve, often poorly fitted, with flat reads before Ran was added; inconclusive means other falling curves, or compound fluorescence or quenching; inactive means flat or rising ratio curve;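 also: potency is read from the fitted curve at half-maximal effect; % of control where 0% means no effect; nearly all actives have a fitted effect of over 45% in size; -100% = wells without RanGTP and RCC1; the record marks most hits as doubtful in a second field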
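Recombinant Rango FRET biosensor (EYFP–snurportin 1 IBB–cerulean CFP10) at 0.1 uM premixed with 0.25 uM importin beta in PBS, 1 mM DTT, 0.02% Tween-20, 0.1% BSA. Compound added 5 min; RanGTP-RCC1 (0.6 uM Ran, 2 mM GTP, 0.2 uM RCC1) then triggers release, read at 45 min.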
miR-21 FLuc = raises the signal of a miR-21 reporter. 340,000 tested, under 10 active. Potency, µM (top dose mostly 38.3 µM), for inactives: top-dose reporter change, positive = more light. HeLa miR-21 FLuc reporter, luciferase, 48 h; active = well fitted rising curve with a large enough effect; inconclusive = small, poorly fitted or top-dose-only effect; inactive = no such curve, though single readings can be large or run the other way;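 also: % of control where 0% means no effect; miR-21 action dims this reporter so a rising signal means less miR-21 action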
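HeLa miR-21-FLuc reporter line, endogenous miR-21; 2000 cells/well in DMEM/10% FBS; compound titration up to ~40uM final, 48 h, 37 degree Celsius; luciferase detection reagent, 15 min lysis, CCD luminescence.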
Rango-impB inh = Rango-importin beta binding inhibition. 340,000 tested, 0.031% active. Q14974. Rango CFP/YFP FRET sensor + importin beta, 45 min. Potency, µM (top dose mostly 92.2 µM), for the others: at the highest dose inhibition of complex formation; active = rising FRET ratio curve, often small or poorly fitted; inconclusive = mostly compound fluorescence or quenching in the first reads; inactive = flat curves in all reads;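 also: potency is read from the fitted curve at half-maximal effect; 0% = DMSO wells and 100% = buffer wells lacking importin beta; nearly all actives have a fitted effect of over 15% in size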
Target sequence (Q14974 whole entry, looked up): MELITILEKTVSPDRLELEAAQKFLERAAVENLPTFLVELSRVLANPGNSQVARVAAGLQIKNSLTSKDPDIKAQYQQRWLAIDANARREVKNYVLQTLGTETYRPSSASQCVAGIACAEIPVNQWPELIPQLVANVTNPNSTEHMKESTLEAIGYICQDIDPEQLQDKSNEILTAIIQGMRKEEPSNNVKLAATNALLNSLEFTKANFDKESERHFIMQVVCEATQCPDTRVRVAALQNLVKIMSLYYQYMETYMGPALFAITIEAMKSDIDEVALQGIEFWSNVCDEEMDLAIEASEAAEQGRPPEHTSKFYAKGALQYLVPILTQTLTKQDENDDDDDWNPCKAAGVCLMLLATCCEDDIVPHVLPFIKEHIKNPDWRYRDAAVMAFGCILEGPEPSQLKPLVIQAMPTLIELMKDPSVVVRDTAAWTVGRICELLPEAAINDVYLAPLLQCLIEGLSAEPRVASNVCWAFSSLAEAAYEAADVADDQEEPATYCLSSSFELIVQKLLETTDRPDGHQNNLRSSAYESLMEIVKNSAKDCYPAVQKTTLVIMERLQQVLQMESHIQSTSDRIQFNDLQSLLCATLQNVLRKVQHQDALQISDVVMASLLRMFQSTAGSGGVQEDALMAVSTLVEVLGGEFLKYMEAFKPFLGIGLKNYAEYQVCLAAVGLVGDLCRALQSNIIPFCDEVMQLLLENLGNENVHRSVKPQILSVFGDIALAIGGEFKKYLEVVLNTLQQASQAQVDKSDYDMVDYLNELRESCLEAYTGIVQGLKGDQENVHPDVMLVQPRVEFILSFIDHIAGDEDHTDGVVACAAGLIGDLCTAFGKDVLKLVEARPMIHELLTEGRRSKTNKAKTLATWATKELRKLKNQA
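FRET biosensor Rango (snurportin 1 IBB between N-terminal EYFP and C-terminal Cerulean), 50 nM in PBS/1 mM DTT/0.02% Tween-20/0.1% BSA, preincubated 5 min RT with compound; 0.125 microM importin beta added, 45 min RT, CFP/YFP FRET ratio read.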
GLA inh pH 4.5 = blocks human alpha-galactosidase A at pH 4.5; P06280; activity change, negative = inhibition, % at 105 µM; purified enzyme, 4-MU-alpha-Gal fluorescence, pH 4.5; 230,000 tested, under 10 active; inconclusive = small, poorly fitted or top-dose-only inhibition, or a rising curve; inactive = flat fitted curve, though single readings scatter; no compound was filed as active;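 also: 0% = full activity with enzyme and -100% = basal without enzyme; dose as in the result columns while the protocol names 77 µM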
An asterisk follows results filed as active; ? = inconclusive; nt = no result given; & = joins results of further samples.

SMILES	Rango dissoc inh	miR-21 FLuc	Rango-impB inh	GLA inh pH 4.5
CS(=O)(=O)N(CC(=O)NCc1ccccn1)Cc1ccc(Cl)cc1	3%	-3%	0.2%	3
O=C(Nc1ccc2c(c1)OCCO2)c1ccc(Cl)cc1Cl	22%	0%	3.9%	nt
CC(=O)c1cc2c(cc1NC(=O)c1ccc(Cl)cc1)OCCO2	0%	-1%	1.0%	nt
Cn1nc(C(F)(F)F)cc1C(=O)NC1CCCCCC1	14%	-4%	-5.7%	-7
CCOc1ccc(-c2c(C(=O)N/N=C/c3ccc(C)s3)nnn2-c2nonc2N)cc1	3%	0%	?	nt
O=C(COC(=O)c1ccc(O)cc1)Nc1ccc(Cl)cc1	-3%	3%	-0.6%	4
NS(=O)(=O)c1ccc(NC(=O)COC(=O)c2cnc(Cl)c(Cl)c2)cc1	13%	0%	5.1%	-10
Cc1nn(Cc2ccccc2)c2c1C(c1cccc(Cl)c1)C(C#N)=C(N)O2 (stereo not given)	4%	22%	6.9%	-3
Cc1ccc(NC(=O)c2ccc(S(=O)(=O)N3CCOCC3)cc2)c(C)c1	-2%	-1%	1.7%	nt
CC1=CN(S(=O)(=O)c2ccc(C)cc2)C[C@@H]2[C@H]3CC[C@H](C3)[C@H]12	10%	nt	2.6%	nt
Cn1c(Cc2cccs2)nnc1SCC(=O)Nc1ccc(C(N)=O)cc1	18%	nt	2.1%	nt
COc1cc(-c2nc3ccccn3c2/N=C/c2cccc(F)c2)ccc1O	?	-7%	?	-6
NC(=O)c1cccnc1OCC(F)(F)F	-4%	3%	-1.9%	0
COC(=O)CC1(C(=O)OC)Oc2ccc(Br)cc2C(=O)N1c1cc(Cl)cc(Cl)c1 (stereo not given)	14%	2%	0.2%	-8
CSc1cc(-c2ccc(Cl)cc2)c(C(=O)NC(C)C)s1	16%	-4%	0.4%	-4
C[C@]12C=CC(=O)C=C1CC[C@@H]1[C@@H]2C(=O)C[C@@]2(C)[C@H]1CC[C@]2(O)C(=O)CO	14%&-2%	-9%	-2.7%&-4.8%	nt
COC(=O)CSc1nnc(CNC(=O)c2ccc(OC)c(OC)c2)n1C	15%	2%	-0.6%	3
O=C(c1ccccc1F)N(Cc1ccccc1)C1CCS(=O)(=O)C1 (stereo not given)	0%	0%	7.1%	1
Cc1ccccc1C(=O)Nc1ccnn1C1CCN(Cc2cccnc2)CC1	-5%	-16%	0.0%	nt
O=C(CCCC(=O)c1ccccc1)NCc1ccccc1	5%	-5%	-0.6%	nt
Cc1cc(=O)oc(C)c1C(=O)NCc1ccc(F)cc1	-18%	7%	-2.9%	2
O=C1CSc2ccccc2N1Cc1ccc(F)cc1	-5%	-9%	0.1%	2
COC(C[C@@H](O)CC(=O)[C@@H](C)OCc1ccccc1)OC	0%	-4%	-3.2%	0
CCNC(=O)C1CC(=O)N(Cc2ccc(F)cc2)C(=Nc2ccc(OC)cc2)S1 (stereo not given)	-19%	-7%	-0.7%	-4
COc1ccc(-c2nnc(SCc3nnc(-c4ccccc4)o3)n2C)cc1OC	-8%	-18%	2.0%	0
CCCN(CCC)C(=O)COc1cc(=O)n(CC)c2ccccc12	3%	-4%	-1.7%	3
c1ccc(CCn2nnnc2C(c2cccnc2)N2CCOCC2)cc1 (stereo not given)	-7%	0%	-8.6%	2
COCCNC(=S)N1CCN(C/C=C/c2ccccc2)CC1	-3%	-4%	0.8%	-1
Cc1sc2ncnc(SCC(=O)NC(C)(C)C)c2c1C	-2%	-4%	0.6%	-11
COc1ccc(-c2cc(C(=O)Nc3ccccc3SC)no2)cc1	-10%	-15%	-0.5%	-7

Two records picked at random from those above, as already listed:
SMILES	Rango dissoc inh	miR-21 FLuc	Rango-impB inh	GLA inh pH 4.5
CCNC(=O)C1CC(=O)N(Cc2ccc(F)cc2)C(=Nc2ccc(OC)cc2)S1 (stereo not given)	-19%	-7%	-0.7%	-4
CC(=O)c1cc2c(cc1NC(=O)c1ccc(Cl)cc1)OCCO2	0%	-1%	1.0%	nt

More compounds follow:
SMILES	Rango dissoc inh	miR-21 FLuc	Rango-impB inh	GLA inh pH 4.5
Cc1cccc(Cn2c(C(=O)OC(C)C)cc3c2ccn3C)c1	?	-4%	?	-2
CSc1ncccc1C(=O)OCC(=O)NC(=O)NCCC(C)C	2%	0%	-1.5%	-2
O=C(OCc1c(-c2ccccc2)ncc2ccccc12)N1CCOCC1	8%	nt	-0.5%	nt
CCC(C)(C)NC(=O)Cn1c(-c2ccc(C)cc2)noc1=O	-15%	-4%	0.3%	-10
O=C(C[C@H]1C/C=C\C[C@H](NC(=O)OCC2c3ccccc3-c3ccccc32)C(=O)OC[C@H](Cc2ccccc2)NC1=O)N[C@H](CO)Cc1ccccc1	10%	nt	-0.2%	nt
Cc1cc(OCc2cc3c(cc2Cl)OCO3)c2c(C)cc(=O)oc2c1	-11%	-2%	1.2%	-5
COC(=O)c1cc(CNC(=O)c2ccc(N3CCCC3)c([N+](=O)[O-])c2)ccc1OC	0%	-7%	0.5%	nt
CCOc1cc2c(cc1C=O)OC(C)C2 (stereo not given)	-5%	1%	?	3
Cc1cccc(Cn2cnc3c(N)c(C)c(C)cc32)c1	4%	-9%	3.9%	0
CCN(CC)S(=O)(=O)c1ccc2c(c1)nc(CCC(=O)Nc1ccc(N3CCOCC3)cc1)n2C	-7%	-4%	-6.7%	-11
Cc1ccccc1NC(=O)Cc1nc(COC(=O)COc2cccc(C)c2C)cs1	-5%	nt	-0.1%	nt
CCCc1[nH]n(-c2ccc(F)cc2)c(=O)c1C=Nc1cccc(F)c1	-10%	7%	-3.6%	-30
O=[N+]([O-])c1cc(-c2nnc(Nc3ccccc3)c3ccccc23)ccc1N1CCOCC1	4%	-4%	?	2
COc1cccc(-c2cc3c(-n4cccc4)ncnc3o2)c1	-18%	-23%	?	-3
Cc1ccc(S(=O)(=O)n2ccc3c2CCCC3=O)cc1	15%	3%	0.1%	nt
CCNC(=O)NC(=O)C(C)OC(=O)CCCSc1nc2ccccc2s1 (stereo not given)	0%	25%	-0.7%	3
COc1cccc(NC(=O)C(OC(=O)/C=C/c2ccc3c(c2)OCO3)c2ccccc2)c1 (stereo not given)	-5%	0%	1.1%	-7
Cc1ccc(-c2cc(C(=O)Nc3ccccc3C(N)=O)c3ccccc3n2)o1	?	nt	?	nt
C(=N\Nc1ccccn1)/c1c[nH]c2ccccc12	-2%	-48%	-1.4%	-10
CC(O)[C@@H](C(=O)N1CCNCC1)n1cc(CCCCN)nn1 (stereo not given in full)	18%	0%	-0.9%	3

Quoted from the listing.
Rango dissoc inh, `Cc1ccccc1NC(=O)Cc1nc(COC(=O)COc2cccc(C)c2C)cs1` → -5%
Rango dissoc inh, `CCNC(=O)NC(=O)C(C)OC(=O)CCCSc1nc2ccccc2s1` (stereo not given) → 0%

Other compounds follow.
SMILES	Rango dissoc inh	miR-21 FLuc	Rango-impB inh	GLA inh pH 4.5
NC(=O)c1ccccc1NC(=O)CCCc1ccccc1	2%	-28%	1.8%	nt
CC(=O)/C(=N/Nc1ccc(C)cc1)Sc1nnc(CCc2ccccc2)n1-c1ccccc1	15%	-5%	-3.7%	-15
COc1ccc(C(=O)N2CCCC(c3ccccc3)=N2)cc1	1%	-18%	-0.1%	-6
Cn1c(S(=O)(=O)O)nc2ccccc21	-12%	1%	3.8%	-3
CC1Cc2ccccc2N1C(=O)COC(=O)Cc1ccc(F)cc1 (stereo not given)	-10%	nt	-3.6%	nt
O=C(CN(C(=O)CNS(=O)(=O)c1ccccc1)c1ccc2c(c1)OCCO2)NCc1ccco1	2%	-13%	6.0%	-4
COc1ccc(C(=O)Oc2ccc3ccc(=O)oc3c2)cc1OC	-11%	-1%	0.7%	nt
O=C(Cn1cc(C(=O)c2ccco2)c2ccccc21)NC1CCCCC1	-3%	5%	0.5%	0
O=C(c1cccs1)c1c[nH]cc1-c1ccccc1	3%	nt	5.1%	nt
O=C(O)c1cc(=O)n(Cc2ccccc2)c(=O)[nH]1	-2%	-4%	0.6%	nt
COc1ccc(S(=O)(=O)N2CCOC2CNC(=O)C(=O)NCCc2ccccc2)cc1C (stereo not given)	-7%	17%	-1.6%	nt
CCc1ccc(NC(=O)Cn2nc(C(=O)O)c3ccccc3c2=O)cc1	-3%	-5%	-1.7%	nt
CCc1noc(C)c1C(=O)OCC(=O)NC(=O)c1ccccc1OC	-1%	-1%	2.5%	nt
CCOc1cc2[nH]c(=O)n(CCCC(=O)NCc3ccc(OC)cc3)c(=O)c2cc1OCC	-14%	-6%&-8%	-5.4%	5
COc1ccccc1NC(=O)CCC(=O)Nc1ccccc1OC	-20%	-1%	2.8%	4
CCc1nc2sc3c(c2c(=O)o1)CCCC3	2%	-3%	1.8%	3
COc1ccc(/C=C/C(=O)NCC(=O)N/N=C/c2cc(Br)ccc2OC)cc1	10%	-2%	4.2%	5
O=C(NC1CC2CCCC(C1)N2C(=S)Nc1ccccc1Cl)C1CC1 (stereo not given)	13%	0%	-0.9%	nt
CCc1cccc(C)c1NC(=O)C1CCCN(S(C)(=O)=O)C1 (stereo not given)	0%	0%	2.4%	nt
CCOC(=O)CCCCCC(=O)Nc1ccc2c(c1)CC(=O)N([C@@H](C)CO)C[C@H](C)[C@@H](CN(C)Cc1ccccc1)O2	-12%	nt	3.6%	nt
O=C(COc1ccccc1)Nc1nnc(S(=O)(=O)Nc2ccccc2)s1	-12%	-6%&-41%	1.0%	nt
S=C(Nc1ccccc1)Nc1ccccc1Br	2%	-10%	0.0%	-1
Cc1c(C(=O)OCC(=O)Nc2ccc(S(N)(=O)=O)cc2)oc2c1ccc1ccccc12	-1%	-20%	-0.3%	8
COc1cccc(NC(=S)NNC(=O)CCn2cc([N+](=O)[O-])cn2)c1	3%	-10%	0.5%	8
O=C(CSc1ccc(-c2ccccn2)nn1)Nc1cccc(F)c1	2%	-24%	-2.3%	nt
CCc1ccc(N2C(=O)CN(Cc3ccccc3)C2=S)cc1	6%	-21%	-4.5%	nt
Cc1cccc(C)c1NC(=O)NC1(C(=O)NCC2CCCO2)CCCCC1 (stereo not given)	-1%	-1%	-3.2%	nt
C=CCN1CCN(C(=O)c2ccc3c(c2)OCO3)CC1	-8%	-5%	-0.4%	nt
N#Cc1ccc(C(=O)CN2CCN(c3ccccc3)CC2)cc1	-9%	1%	-6.4%	nt
COc1ccc(CCNC(=O)CSc2cc(=O)[nH]c(N)n2)cc1OC	-4%	6%	2.4%	-7
Cc1nnc(SCC(=O)NNC(=O)COc2ccc(Cl)cc2)s1	15%	5%	3.3%	3
CC(C)Sc1snnc1-c1ccccc1	1%	-2%	1.7%	-1
CC(=O)Nc1nc(C2CC2)cc(-c2ccccc2)c1C#N	-11%	0%	0.3%	8
CC(C)(C)c1csc(N/N=C/c2ccc(O)cc2)n1	5%	-49%	-4.5%	nt
COc1ccc(CN2CC(=O)N(c3ccc(C)cc3C)C2=S)cc1OC	-30%	-7%	2.9%	-5
CC(NS(=O)(=O)c1ccc(Cl)cc1)C(=O)OCC(=O)Nc1ccc(N(C)C)cc1 (stereo not given)	-7%	nt	0.9%	nt
O=C(c1ccco1)N1CCN(C(c2coc3ccc(Cl)cc3c2=O)c2nnnn2C2CCCC2)CC1 (stereo not given)	-9%	nt	-1.5%	nt
CCN(CC)C(=O)[C@H]1CC(CC(=O)NCCN2CCOCC2)C(=O)N2CCc3c([nH]c4ccccc34)[C@]12C (stereo not given in full)	5%	nt	-1.0%	nt
O=C(O)CCC(=O)Nc1nc2nc(-c3ccccc3)cc(-c3ccccc3)n2n1	-10%	-2%	-4.6%	-6
CCC(=O)N(CCC1(c2ccccc2OC)CCOC(C(C)C)C1)Cc1ccco1 (stereo not given)	-1%	21%	-0.4%	-2
CCCSc1nnc(Cn2c(=O)sc3ccccc32)n1-c1ccccc1	-2%	-3%	0.2%	-5
Cn1ccnc1SCC(=O)Nc1ccc(SC(F)F)cc1	-4%	nt	-3.6%	nt
COc1ccccc1/C=N/NC(=O)c1ccc(=O)n(C)c1	-1%	-5%	-3.4%	-4
COc1ccc(S(=O)(=O)N2CCN(C(=O)CN3C(=O)NC(C)(C)C3=O)CC2)cc1	-4%	nt	-3.5%	nt
COc1ccc(/C=C/C(=O)NCCC(=O)N2CCCN(C)CC2)cc1	0%	1%	-0.5%	-5

A portion of the library; rates above refer to the full screens.
